Assay outcomes (PubChem BioAssay)
Mtb growth – Mycobacterium tuberculosis H37Rv growth inhibition, putative kinase inhibitor library, confirmatory dose response (AID 2842). hit rate 5.2% among 24,000. M. tuberculosis H37Rv growth inhibition; higher % means a stronger effect; some inactives read as strong as hits. inhibition, % at 10 µg/mL; hits with a dose series show IC90 in µg/mL;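 active means confirmed in a dose series; inconclusive means mostly over 85% at the one dose but not retested; inactive means below 85% or not confirmed; about a fifth of its hits are not listed in these tables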;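 further: bacteria incubated one week before Alamar blue readout; 0% = bacteria only wells and 100% = bacteria with high antibiotic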
* = called active by the depositor; u = inconclusive.

SMILES | Mtb growth
COc1ccc(Nc2nc(Nc3ccccc3)c3nccnc3n2)cc1Cl | 1%
Cc1ccc2c(c1)c1c(n2CC(O)CN2CCOCC2)CCCC1 (stereo not drawn) | 16%
CC(C)(C)NC(=O)c1cccc2c1-c1ccccc1C2=O | 4%
Nc1ncnc(NCCCn2ccnc2)c1[N+](=O)[O-] | -5%
O=C1c2ccncc2C(=O)N1CNc1ccccn1 | -2%
CCc1ccc(-c2nnc3c4cc5c(cc4n(Cc4ccccc4)cc2-3)OCCO5)cc1 | 9%
CC1(C)CC(=O)c2sc(NC(=O)c3cccc(NS(=O)(=O)c4ccc(F)cc4)c3)nc2C1 | -3%
Cc1nn(-c2ccccc2)c2c1C(c1ccc([N+](=O)[O-])cc1)C(C#N)=C(N)O2 (stereo not drawn) | 14%

The last 2 entries of the section above come first, to join the parts:
SMILES | Mtb growth
CC1(C)CC(=O)c2sc(NC(=O)c3cccc(NS(=O)(=O)c4ccc(F)cc4)c3)nc2C1 | -3%
Cc1nn(-c2ccccc2)c2c1C(c1ccc([N+](=O)[O-])cc1)C(C#N)=C(N)O2 (stereo not drawn) | 14%
CCOC(=O)c1nn(-c2ccc(C)cc2)c(=O)c2c(NC(=O)CC)scc12 | 8%
COC(=O)Cn1c(=NC(=O)c2ccc(C#N)cc2)sc2cc(F)ccc21 | -7%
COc1cccc(Cn2cc3c(-c4ccc(C)cc4)nnc-3c3cc(OC)c(OC)cc32)c1 | 5%
O=C(CSc1nc(=O)[nH]c2c1CCC2)c1ccc(Cl)cc1 | 10%
CCn1c(SCC(=O)Nc2ccc(F)cc2F)nc2c(c1=O)SC(C)C2 (stereo not drawn) | 1%
CCOC(=O)c1[nH]c2ccccc2c1NC(=S)Nc1ccc(OC)cc1 | 6%
Cc1cc(NC(=O)NC(=O)c2ccccc2)no1 | 5%
Cc1ccc2cc(CCNC(=O)COc3ccc4ccccc4c3)c(=O)[nH]c2c1 | -1%

(more compounds)
SMILES | Mtb growth
Cn1c(O)c(N=NC(=O)CCCC(=O)N=Nc2c(O)n(C)c3ccccc23)c2ccccc21 | -15%
CCOC(=O)c1nn(-c2ccc(F)cc2)c(=O)c2c(NC(=O)c3cccc(C)c3)scc12 | -6%
O=C(Cc1ccccc1)Nc1nnc(C2=COCCO2)o1 | -3%
CS(=O)(=O)c1ccc(-c2nnc(NC(=O)c3cccc([N+](=O)[O-])c3)o2)cc1 | 75%
CCc1ccc(NC(=O)c2oc3ccccc3c2NC(=O)C2CCCCC2)cc1 | 0%
CCOc1ccc(NC(=O)c2oc3ccccc3c2NC(=O)CCCc2ccccc2)cc1 | 3%
NC(=O)c1oc2ccccc2c1NC(=O)c1cccc(Oc2ccccc2)c1 | 2%
O=c1[nH]ncc(N/N=C\c2ccccc2O)c1Cl | 2%

(continued)
SMILES | Mtb growth
NC(=O)c1c(NC(=O)c2ccc(Br)cc2)sc2c1CCN(Cc1ccccc1)C2 | -6%
Cc1ccccc1-c1nc(C(N)=O)c2[nH]c(=O)n(-c3ccc4c(c3)OCO4)c2n1 | -11%
CCCc1cc(=O)oc2cc(OC(C)C(=O)O)ccc12 (stereo not drawn) | -26%
C/C(=N\NC(=O)c1cc(C2CC2)[nH]n1)c1ccncc1 | -15%
COC(=O)c1ccc(NC(=O)CSc2nc(-c3ccc(C)cc3)ns2)cc1 | 21µg/mL*
CCOC(=O)c1[nH]c2ccccc2c1NC(=O)CC | 5%
CCOc1ccc(C(=O)c2cn(Cc3ccc(OC)cc3)c3cc4c(cc3c2=O)OCCO4)cc1 | u
CCCc1nc(SCC(=O)Nc2nccs2)c2c(=O)n(C)c(=O)n(C)c2n1 | -2%

Sorted by count of non-hydrogen atoms (highest first): 6 of the compounds above.
SMILES | Mtb growth
CCOc1ccc(C(=O)c2cn(Cc3ccc(OC)cc3)c3cc4c(cc3c2=O)OCCO4)cc1 | u
NC(=O)c1c(NC(=O)c2ccc(Br)cc2)sc2c1CCN(Cc1ccccc1)C2 | -6%
CCCc1nc(SCC(=O)Nc2nccs2)c2c(=O)n(C)c(=O)n(C)c2n1 | -2%
C/C(=N\NC(=O)c1cc(C2CC2)[nH]n1)c1ccncc1 | -15%
CCOC(=O)c1[nH]c2ccccc2c1NC(=O)CC | 5%
O=c1[nH]ncc(N/N=C\c2ccccc2O)c1Cl | 2%

Other structures follow:
SMILES | Mtb growth
O=C(Cc1cccc2ccccc12)Nc1nc(-c2ccc(Br)s2)cs1 | 16µg/mL*
COc1ccc(OC)c(NC(=O)c2oc3ccccc3c2NC(=O)c2cccc(F)c2)c1 | -7%
Cc1ccc(N2C(=O)C3N=NN(CC(=O)Nc4ccc(Br)cc4F)C3C2=O)cc1Cl (stereo not drawn) | -10%
O=c1c2nnn(Cc3ccc(F)cc3)c2ncn1Cc1ccc(C(F)(F)F)cc1 | 2%
COc1cc2c3nnc(-c4ccc(C)cc4)c-3cn(Cc3cccc(C)c3)c2cc1OC | 28µg/mL*
O=C(Nc1nc(-c2ccccc2)c(C(=O)c2ccccc2)s1)c1cccc(Br)c1 | 3%
Cc1ccc(C(=O)Nc2cc3c4c(c2)CCC(=O)N4CCC3)cc1C | 70%
COc1cc2nc(NC(=O)c3cc4cc([N+](=O)[O-])ccc4s3)sc2cc1OC | -1%

(continued)
SMILES | Mtb growth
Cc1ccc(-c2nsc(SCC(=O)Nc3cc(C)on3)n2)cc1 | -6%
CC1Cc2nc(SCC(=O)Nc3cccc(C(F)(F)F)c3)n(C)c(=O)c2S1 (stereo not drawn) | 3%
O=C(Cc1ccc(Cl)cc1)Oc1coc(CSc2ncccn2)cc1=O | -4%
COc1ccccc1-c1ccc2nnc(SCC(=O)c3ccc(F)cc3)n2n1 | 5%
O=C(Nc1nc(-c2ccccc2)c(C(=O)c2ccccc2)s1)c1ccc(F)cc1 | 1%
Cc1ccccc1CC1S/C(=N\N=C\c2ccco2)NC1=O (stereo not drawn) | 5%
COc1cccc(Cn2cc(C(=O)c3ccccc3)c(=O)c3ccccc32)c1 | 9%
O=C(CCSc1ccccc1)Nc1nnc(-c2ccccc2)o1 | 13µg/mL*

Going on with the list:
SMILES | Mtb growth
O=C(O)c1ccccc1SC1CC(=O)N(c2cccc(Cl)c2)C1=O (stereo not drawn) | 9%
CC1=NN(CCO)c2nc3c(c(=O)n(C)c(=O)n3C)n2C1C (stereo not drawn) | -10%
Cc1cc(C)cc(Nc2ncnc(N)c2[N+](=O)[O-])c1 | 1%
O=C(Nc1nc2c(s1)CCCC2)c1coc2ccccc2c1=O | -3%
COC(=O)c1ccc(C(=O)Nc2nnc(-c3ccc(Br)cc3)o2)cc1 | 83%
CN(Cc1ccccc1)S(=O)(=O)c1ccc(C(=O)Nc2ccc3c(c2)C(=O)NC3=O)cc1 | -14%
CCOc1ccc2nc(NC(=O)c3ccccc3C)sc2c1 | 7%
Cc1ccccc1NC(=O)C(=O)Nc1cc2c3c(c1)CCN3C(=O)CC2 | 25%

(listing goes on)
SMILES | Mtb growth
O=C(CS(=O)(=O)c1ccccc1)Nc1ccc2c(c1)C(=O)NC2=O | -25%
COc1ccc([N+](=O)[O-])cc1NC(=O)c1ccccc1NS(=O)(=O)c1ccccc1 | -15%
COc1cc(C(c2sc3ncnn3c2O)N2CCC(O)CC2)cc(OC)c1OC (stereo not drawn) | -1%
O=C(CCCN1C(=O)c2cccc3cccc(c23)C1=O)Nc1nc(-c2ccc(Cl)cc2Cl)cs1 | 3%
COc1ccc(OCC(O)Cn2c(NCc3ccc(C)cc3)nc3c2c(=O)[nH]c(=O)n3C)cc1 (stereo not drawn) | -8%
CCOC(=O)c1nn(-c2ccc(C)cc2)c(=O)c2c(NC(=O)C3CCCCC3)scc12 | 0%
Cc1nc2sc(C(c3ccccc3C)N3CCC(C(N)=O)CC3)c(O)n2n1 (stereo not drawn) | 23%
Cc1ccc(NC(=O)CSc2nccn(-c3ccc(F)cc3)c2=O)c(C)c1 | -12%

Following part.
SMILES | Mtb growth
O=C(Nc1nccs1)c1cc(=O)c2ccccc2o1 | -23%
COc1cccc(/C=N/Nc2ncc(C)c(=O)[nH]2)c1O | 44%
CS(=O)(=O)c1cccc(-c2nnc(NC(=O)c3sc4ccccc4c3Cl)o2)c1 | -10%
Nc1nc(SCC(=O)Nc2ccc3c(c2)OCO3)[nH]c(=O)c1NC(=O)c1ccccc1 | -4%
COc1ccc(C(=O)Nc2c(N)nc(SCC(=O)Nc3ccccc3F)[nH]c2=O)cc1OC | -1%
CCCc1cc(=O)[nH]c2nnc(SCC(=O)Nc3cc(C)on3)n12 | 5%
O=C(Nc1ccc(F)cc1F)c1cnc2n(c1=O)CCS2 | 5%
CCc1nnc(NC(=O)CSc2nnc(CNC(=O)c3ccccc3)o2)s1 | -19%

(more compounds)
SMILES | Mtb growth
COc1ccccc1C(=O)Nc1nnc(-c2ccc(Br)cc2)o1 | 18%
Cc1cc(SCC(=O)Nc2cc(C(F)(F)F)cc(C(F)(F)F)c2)nc(=O)[nH]1 | -15%
O=C(Nc1nnc(-c2ccc(Br)cc2)o1)C1=COCCO1 | 25µg/mL*
CCOC(=O)c1ccc2nc(NC(=O)CC)sc2c1 | 0%
N#Cc1ccc(-c2csc(NC(=O)c3cccc(F)c3)n2)cc1 | 4%
Fc1ccccc1Nc1nc2c(F)cccc2s1 | 4%
O=C1NC(=Nc2ccccc2)S/C1=C/c1cccs1 | 12%
O=C(Nc1nnc(-c2cccc([N+](=O)[O-])c2)s1)c1cccc(Br)c1 | 2%

(list continues)
SMILES | Mtb growth
COc1cccc(NC(=O)c2cnc(SC)n(C)c2=O)c1 | -2%
Cc1cccc(CC(=O)Nc2cc(C)c3c(=O)oc4ccccc4c3n2)c1 | 12%
O=C(CCn1c(=O)oc2ccccc21)NCCc1ccccc1 | -8%
Cc1ccc(C(=O)Nc2nnc(C3=COCCO3)o2)cc1 | 2.8µg/mL*
COc1cccc(-c2csc(NC(=O)C3CCCCC3)n2)c1 | 20µg/mL*
Cc1cccc(C(=O)NCCc2cc3ccc(C)cc3[nH]c2=O)c1 | 9%
COc1ccc(-c2nnc3ccc(SCC(N)=O)nn23)cc1 | -2%
O=C(Nc1c(C(=O)Nc2ccc([N+](=O)[O-])cc2)oc2ccccc12)c1cccc(Br)c1 | 14%

(further entries)
SMILES | Mtb growth
COc1ccc(C2CC(c3ccc(NS(C)(=O)=O)cc3)=NN2S(=O)(=O)c2ccc(F)cc2)cc1 (stereo not drawn) | -6%
Brc1ccc(Nc2ncnc3c2cnn3-c2ccccc2)cc1 | 6%
O=C1c2cccc(OCC(=O)N3CCCc4ccccc43)c2CCN1Cc1ccc(F)cc1 | 15%
Cc1ccccc1-c1nnc(NC(=O)c2cccc([N+](=O)[O-])c2)s1 | 0%
O=C(CSc1n[nH]c(=O)[nH]c1=O)N/N=C/c1ccco1 | -11%
O=C(CSc1nc(-c2ccccc2Cl)ns1)Nc1nccs1 | -16%
COc1cc(C(=O)Nc2sc3c(c2C(N)=O)CCN(C(C)C)C3)cc(OC)c1OC | -1%
CC1(C)CC(=O)c2sc(NC(=O)c3cc(-c4cccs4)nc4ccccc34)nc2C1 | 35%

Further results follow:
SMILES | Mtb growth
CCOC(=O)c1[nH]c2ccccc2c1NC(=O)Cc1cccc2ccccc12 | 7%
CC(C)(C)CC(=O)Nc1c(C(=O)Nc2ccccc2)oc2ccccc12 | 3%
O=C(Nc1ncc(Cc2ccccc2Cl)s1)c1ccc2c(c1)OCCO2 | 13%
CC(C)N1C(=O)/C(=C2/C(=O)N(CC(N)=O)c3ccccc32)SC1=S | -3%
COc1ccc(CCNC(=O)c2cc3cc([N+](=O)[O-])ccc3oc2=O)cc1OC | -2%
Cc1cccc(NC(=O)NCc2n[nH]c(=O)c3ccccc23)c1 | -2%
COc1ccc(OCC(=O)Nc2ncc(Cc3ccccc3)s2)cc1 | 13%
Cc1ccc(C(=O)Nc2c(C(=O)Nc3ccc(OC(F)(F)F)cc3)oc3ccccc23)cc1 | 6%

Continuation.
SMILES | Mtb growth
O=C(CSc1nnc(-c2cccs2)o1)Nc1nccs1 | 40%
O=C(CSc1ccc2nnc(-c3ccc(Cl)cc3)n2n1)Nc1nc2ccccc2s1 | 1%
O=C(Nc1cccc(Cl)c1)c1oc2ccccc2c1NC(=O)c1cc2ccccc2oc1=O | 7%
CCc1ccc(NC(=O)c2oc3cc(C)c(C)cc3c2C)cc1 | -1%
COc1cccc2c(=O)n(CC(=O)Nc3cccc(C)c3C)ccc12 | 49%
CCOc1ccc(-c2csc(/C(C#N)=C/Nc3ccc4c(c3)OCO4)n2)cc1 | 5%
Cc1ccc2sc(NNC(=O)c3ccc(N(C)C)cc3)nc2c1C | u
CC(C)NS(=O)(=O)c1ccc2nc(NC(=O)c3cccnc3)sc2c1 | 8%

Next section:
SMILES | Mtb growth
O=C(Nc1cc2c3c(c1)CCC(=O)N3CCC2)c1ccccc1F | 9%
CCOC(=O)C1CCN(C(c2cccc(OC)c2)c2sc3ncnn3c2O)CC1 (stereo not drawn) | 8%
COc1ccc(Cn2cc(S(=O)(=O)c3ccccc3)c(=O)c3cc(F)ccc32)cc1 | -5%
CN(C(=O)c1cccc([N+](=O)[O-])c1)c1nnc(C23CC4CC(CC(C4)C2)C3)s1 | 15%
COc1cc(OC)cc(C(=O)N(C)C2CCS(=O)(=O)C2)c1 (stereo not drawn) | -17%
COc1ccc(NC(=O)c2cnc3sccn3c2=O)cc1 | -2%
O=C(O)c1cccc(NS(=O)(=O)c2ccc(O)c(C(=O)O)c2)c1 | -7%
O=C(O)c1n[nH]c2c1CCCC2 | -6%

Later entries.
SMILES | Mtb growth
Cc1cc2nc(N(Cc3cccnc3)C(=O)c3ccc(C#N)cc3)sc2cc1C | 6%
COc1ccc(-c2nsc(SCC(=O)Nc3ccc(OC)c(OC)c3)n2)cc1 | -1%
O=C(COc1ccc2ccccc2c1)Nc1c(C(=O)Nc2ccc3c(c2)OCCO3)oc2ccccc12 | 10%
O=C(O)c1ccc(Nc2nc(-c3ccccc3)c3cc(Cl)ccc3n2)cc1 | 75%
O=C(N/N=C/c1ccc(Cl)cc1)c1n[nH]c2c1CCCC2 | -1%
Cc1ccc(C(=O)CSc2nc(N)c(C#N)c(-c3cccs3)c2C#N)c(C)c1 | 14%
CCS(=O)(=O)c1ccc(C(=O)Nc2nc(-c3ccc4c(c3)OCO4)cs2)cc1 | -4%

Some of the compounds tested; count on the stated rates, not on these rows.
